# OX1R antag-1: OX1R (HCRTR1) antagonists, primary screen, fluorescence, CHO/OX1R cells, Fluo-8 calcium, orexin A; inhibition, % at 5 µM; AID 434989, 2010; 0.43% of 330,000 active; Orexin/Hypocretin receptor type 1 (Homo sapiens), O43613; Fluo-8 calcium fluorescence;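 active means inhibition above its plate's threshold, mean inhibition of all tested compounds on the plate plus 3 SD, cut at about 37% in these data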;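 further: 0% = orexin A challenge wells and 100% = SB-334867-A antagonist wells; not every result past the cut was called active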
# Target sequence (O43613 whole entry, looked up): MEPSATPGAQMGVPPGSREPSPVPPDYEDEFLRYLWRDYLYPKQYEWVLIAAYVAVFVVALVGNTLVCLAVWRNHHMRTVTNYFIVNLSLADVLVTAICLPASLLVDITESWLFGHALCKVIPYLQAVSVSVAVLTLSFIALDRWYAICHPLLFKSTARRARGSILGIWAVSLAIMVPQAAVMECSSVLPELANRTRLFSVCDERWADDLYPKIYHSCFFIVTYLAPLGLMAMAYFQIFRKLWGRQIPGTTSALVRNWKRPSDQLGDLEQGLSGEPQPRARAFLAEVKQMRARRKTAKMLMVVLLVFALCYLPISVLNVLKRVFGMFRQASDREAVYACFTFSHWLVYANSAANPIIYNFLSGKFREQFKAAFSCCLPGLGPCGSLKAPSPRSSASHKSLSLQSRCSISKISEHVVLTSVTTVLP
# OX1R antag-2: antagonists of human orexin 1 receptor (OX1R). OX1R-expressing cells, FRET antagonist read-out. Orexin/Hypocretin receptor type 1 (Homo sapiens), O43613. AID 485270, 2010. inhibition, % at 6.6 µM. 1.8% of 330,000 active; in the data active means inhibition mostly above about 38%, no sharp cut-off; inactive means mostly below about 40%;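 further: 0% = agonist challenge alone and 100% = reference antagonist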
# An asterisk follows results filed as active. Some of the compounds tested, and most or all hits are left out here.
# The opening 4 entries, to show the layout:
1	O=C(c1ccco1)N1CCN(C(c2ccc(F)cc2)c2nnnn2CC2CCCO2)CC1 (stereo not given)
2	CCn1c(SCC(=O)N2CCN(c3ccccc3F)CC2)nnc1-c1ccoc1C
3	CC(=O)Nc1nc(C)cs1
4	CCc1noc(C)c1C(=O)N1CCC(CCC(=O)Nc2cccc(C)c2)CC1

entry no.	1	2	3	4
OX1R antag-1	-30.9	-30.5	6.7	-19.9
OX1R antag-2	4.8	22.9	13.0	10.3

# The list itself, from the first entry:
1	O=C(c1ccco1)N1CCN(C(c2ccc(F)cc2)c2nnnn2CC2CCCO2)CC1 (stereo not given)
2	CCn1c(SCC(=O)N2CCN(c3ccccc3F)CC2)nnc1-c1ccoc1C
3	CC(=O)Nc1nc(C)cs1
4	CCc1noc(C)c1C(=O)N1CCC(CCC(=O)Nc2cccc(C)c2)CC1
5	CN1CCN(CCC(=O)Nc2cccc(F)c2)CC1

entry no.	1	2	3	4	5
OX1R antag-1	-30.9	-30.5	6.7	-19.9	-17.5
OX1R antag-2	4.8	22.9	13.0	10.3	13.5

6	CC(C)C(=O)N1C2CCC1CC(O)(c1ccc(F)cc1)C2 (stereo not given)
7	CCN(CC)C(=O)c1sc(NC(=O)c2c(OC)cccc2OC)c(C#N)c1C
8	CC(=O)c1ccc(NC(=O)c2sc3nc(N4CCOCC4)c4c(c3c2N)CCCC4)cc1
9	COc1cccc(CNC(=O)c2cccnc2Sc2ccc(C)cc2C)c1
10	CC(C)(C)n1nnnc1C(c1ccc(F)cc1)N1CCC(C(N)=O)CC1 (stereo not given)

entry no.	6	7	8	9	10
OX1R antag-1	-25.8	-22.7	-2.0	-7.2	-8.7
OX1R antag-2	3.3	9.4	5.7	33.5	3.9

11	COC(=O)c1cc(-c2ccc(Br)cc2)n[nH]1
12	O=C(O)c1cccc(NC(=S)NCc2ccccc2)c1
13	COc1ccccc1C(=O)N1CC(=O)Nc2ccc(F)cc2C1c1ccccc1 (stereo not given)
14	Clc1ccc(C(c2nnnn2C2CCCC2)N2CCN(c3nc4ccccc4s3)CC2)cc1 (stereo not given)
15	CCOC(=O)C1CCN(Cc2nnnn2CCc2ccccc2)CC1

entry no.	11	12	13	14	15
OX1R antag-1	-5.6	8.6	-12.0	-5.4	-8.8
OX1R antag-2	16.1	4.6	2.7	14.3	7.7

16	COc1cc2[nH]c(=O)n(CCC(=O)N3CCN(c4cc(Cl)ccc4C)CC3)c(=O)c2cc1OC
17	Cc1cc(C)cc(NC(=O)CSc2nc3ccccc3nc2N2CCCC2)c1
18	OC(c1ccccn1)C1CCN(Cc2nc(C(c3ccccc3)c3ccccc3)no2)CC1 (stereo not given)
19	CC1=CS/C(=C(/C#N)C(=O)N2CCOCC2)N1c1ccccc1
20	CCOc1ccc(-c2cc(CCCC(=O)NCCC(C)C)no2)cc1

entry no.	16	17	18	19	20
OX1R antag-1	-29.8	-44.2	-13.8	-3.5	-20.8
OX1R antag-2	18.0	19.5	6.8	12.3	11.3

21	O=C(CCc1nc(-c2cccs2)no1)NCc1ccc(F)cc1Cl
22	COc1cc2c(cc1OC)C(C(=O)NC(C)c1ccccc1)CC(=O)N2 (stereo not given)
23	COCCN1C2=C(C(=O)CC(C)(C)C2)C(c2ccc(O)c(OC)c2)C2=C1CC(C)(C)CC2=O
24	Cc1ccc(S(=O)(=O)Cn2nnnc2C(c2ccccc2)N2CCN(c3ncccn3)CC2)cc1 (stereo not given)
25	COc1ccc(CCN(C)C(=O)CCc2nnc(-c3ccccc3)o2)cc1OC

entry no.	21	22	23	24	25
OX1R antag-1	-19.2	5.7	-22.2	-20.0	-19.1
OX1R antag-2	15.8	0.7	12.0	19.0	18.7

26	CCN(C(=O)/C=C/c1ccc(OC)cc1)C1CCCCC1
27	C/C(=N\NC(=O)c1ccccc1C)c1ccc(NC(=O)c2cccs2)cc1
28	O=C(NCCO)C(=O)c1c(-c2ccccc2)cc2ccccn12
29	COc1ccc(OC)c(/C=C/C(=O)OCC(=O)c2c(N)n(C)c(=O)n(C)c2=O)c1
30	CSCCCN1CC[C@@H](N2CCN(c3ccccc3F)CC2)[C@H](O)C1

entry no.	26	27	28	29	30
OX1R antag-1	-20.5	-22.8	-0.3	-13.3	-25.5
OX1R antag-2	2.5	31.0	43.3	8.5	10.4

31	O=C(CSc1nnc2c(n1)[nH]c1ccccc12)NC1CCCCC1
32	CCOC(=O)c1cc2c(C)n(-c3ccc(N(C)C)cc3)c(C)c2cc(C(=O)OCC)c1=O
33	O=C(COc1ccc(Cl)cc1)NCc1nnc(SCC(=O)NCCc2ccccc2)o1
34	CCCCC1=CC2=C(c3ccco3)C(=O)C(C)(OC(=O)c3ccc(OC)cc3)C(=O)C2=CN1C(CO)CO (stereo not given)
35	COc1cc(CNCc2cccs2)ccc1OCC(=O)NC(C)(C)C

entry no.	31	32	33	34	35
OX1R antag-1	-13.8	-21.1	-13.7	-11.3	-17.6
OX1R antag-2	1.6	6.1	2.5	24.2	2.0

36	CC(=O)Nc1cc(C(=O)NCc2ccco2)ccc1Sc1ccc(C)cc1
37	COc1ccc(OC(C)C(=O)Nc2cccc(F)c2)cc1 (stereo not given)
38	COCCCNC(=S)Nc1ccccc1C
39	COCCCNC(=O)c1ccc(CS(=O)(=O)c2ccccc2C)o1
40	COc1ccccc1OCCC(=O)OCC(=O)NCc1ccccc1

entry no.	36	37	38	39	40
OX1R antag-1	0.3	-31.7	7.1	-3.4	-8.7
OX1R antag-2	13.0	9.5	5.4	-4.7	17.3

41	COCCNC(=O)[C@H]1C[C@@H]1[C@H](NP(=O)(c1ccccc1)c1ccccc1)c1ccccc1
42	N#Cc1sc(C(N)=O)c(-c2ccccc2)c1-c1ccccc1
43	O=C(O)/C=C/C(=O)NCc1ccccn1
44	COc1cc2cc(C)c3nnc(SCC(=O)Nc4cc(C)on4)n3c2cc1OC
45	CC(=O)c1ccc(OCc2cc(C(=O)N3CCN(C4CCCC4)C(=O)C3)no2)cc1

entry no.	41	42	43	44	45
OX1R antag-1	-19.7	-4.7	-4.4	-17.2	-25.5
OX1R antag-2	25.4	5.1	12.5	7.1	9.2

46	CC(=O)Nc1ccc(CN2CCN(c3cccc(C(F)(F)F)c3)CC2)cc1
47	Cc1ccc2c(CC(=O)Nc3sccc3C(N)=O)coc2c1
48	Fc1cccc(Cc2noc(CN3CCCCC3CCc3ccccn3)n2)c1 (stereo not given)
49	CCN(CC)c1c([N+](=O)[O-])c(=O)sc2ccccc12
50	Cn1c(Cc2cccs2)nnc1SCC(=O)Nc1ccccc1F

entry no.	46	47	48	49	50
OX1R antag-1	-9.7	-11.4	-29.7	-3.7	-15.6
OX1R antag-2	6.3	55.0	16.8	3.3	21.9

51	CCOC(=O)N1CCN(C(=O)COC(=O)CSc2ccc([N+](=O)[O-])cc2)CC1
52	CCOc1ccc(C2CC(=O)NC3=C2C(=O)CCC3)cc1 (stereo not given)
53	O=C(COC(=O)c1cccc(F)c1)NC1CC1
54	CC(C)(C)c1ccc(C(=O)Nc2ccc(CN3CCS(=O)(=O)CC3)cc2)cc1
55	COc1ccc([C@H]2C=C3CN(C(=O)OC(C)(C)C)S(=O)(=O)[C@H]3C[C@H]2OC(=O)c2ccc(C(F)(F)F)cc2)cc1

entry no.	51	52	53	54	55
OX1R antag-1	-8.9	-8.5	-3.4	9.3	-34.4
OX1R antag-2	24.7	13.0	10.3	16.2	11.2

56	CCCCCCCCCCS(=O)(=O)N/N=C/c1ccccc1OC
57	COc1ccc(S(=O)(=O)N2CCOCC2)cc1NC(=O)CSc1ccccc1
58	Cc1cc(NC(=O)CCC(=O)N(Cc2ccco2)C(C(=O)NC2CCCCC2)c2cccs2)no1 (stereo not given)
59	CCN1c2ccccc2N(C)C1(C)c1ccccc1 (stereo not given)
60	CNC(=O)C(=O)N/N=C/c1ccc(Br)cc1

entry no.	56	57	58	59	60
OX1R antag-1	-12.8	-17.8	-31.2	-8.6	-10.0
OX1R antag-2	4.4	15.0	35.8	47.1	8.4

61	O=C(NCc1n[nH]c(=S)n1-c1ccccc1)c1ccc(S(=O)(=O)N2CCCCC2)cc1
62	CC(C)c1nc(CNC(=O)C2CCC(=O)N(Cc3ccc(Cl)cc3)C2)no1 (stereo not given)
63	COc1ccc(N2CCCn3c2nc2c3c(=O)n(CCc3ccccc3)c(=O)n2C)cc1
64	O=[N+]([O-])c1cc(C(F)(F)F)ccc1N1CCCC(O)C1 (stereo not given)
65	O=C(Cc1ccccc1)NC(c1ccco1)c1c(O)ccc2ccccc12 (stereo not given)

entry no.	61	62	63	64	65
OX1R antag-1	-22.9	-13.6	-33.9	-9.2	-17.6
OX1R antag-2	11.7	9.2	22.5	12.6	11.6

# One compound at a time, as listed above.
# O=[N+]([O-])c1cc(C(F)(F)F)ccc1N1CCCC(O)C1 (stereo not given) is listed as OX1R antag-1: -9.2; OX1R antag-2: 12.6
# CC(C)c1nc(CNC(=O)C2CCC(=O)N(Cc3ccc(Cl)cc3)C2)no1 (stereo not given) is listed as OX1R antag-1: -13.6; OX1R antag-2: 9.2

# More structures follow.
66	COc1cc(C(=O)Nc2ccccc2SCc2cc(=O)n3nc(C)sc3n2)cc(OC)c1OC
67	CCCCn1c(N)c(N(CC(C)C)C(=O)c2cccc(S(=O)(=O)N3CC(C)OC(C)C3)c2)c(=O)[nH]c1=O (stereo not given)
68	O=C(Nc1ccc(Cc2ccncc2)cc1)C1CCC(N2C(=O)C3CC=CCC3C2=O)CC1 (stereo not given)
69	CCOc1ccc(NC(=S)NCCCn2ccnc2)cc1
70	CCCn1nc(NC(=O)c2ccco2)c2cc3ccc(C)cc3nc21

entry no.	66	67	68	69	70
OX1R antag-1	-36.3	-21.3	-29.1	-2.3	-24.1
OX1R antag-2	8.1	20.4	10.8	25.7	15.8

71	O=C(Nc1ccc2c(c1)OCCO2)c1ccccc1
72	CCCC(=O)Nc1ccc(NC(=O)C23CC4CC(CC(C4)C2)C3)cn1
73	O=C(CC1SC(=O)N(c2ccccc2)C1=O)Nc1ccccc1 (stereo not given)
74	CCCCn1c(N)c(N(CC)C(=O)CSCc2c(C)noc2C)c(=O)[nH]c1=O
75	Cc1ccc(C(=O)N2Cc3ccccc3CC2C(=O)O)cc1 (stereo not given)

entry no.	71	72	73	74	75
OX1R antag-1	-6.9	-12.1	-12.8	3.7	-4.5
OX1R antag-2	4.5	12.2	6.6	20.1	3.6

76	O=C(O)c1ccc(CSc2nnc(-c3ccc(Cl)cc3)o2)cc1
77	COc1ccc(-c2ccc([C@H]3[C@@H]4C=CCC[C@@]4(C)C(=O)N3Cc3ccccc3)c(F)c2)cc1
78	c1ccc(-c2ccccc2OCCCCN2CCCCCC2)cc1
79	COc1ccc(CCC(=O)N2CCN(S(=O)(=O)c3ccc4ccccc4c3)CC2)cc1
80	CC(NC(=O)CC1SC(N)=NC1=O)c1ccccc1 (stereo not given)

entry no.	76	77	78	79	80
OX1R antag-1	-2.8	-49.3	-25.3	-1.7	-8.2
OX1R antag-2	12.2	29.1	13.0	18.9	0.1

81	O=C(Cn1cc([N+](=O)[O-])cn1)NC1CCCCCC1
82	COc1ccc(C2NS(=O)(=O)OCC2C)cc1 (stereo not given)
83	OCC[C@H]1C[C@@H](O)[C@H](O)[C@@]2(OCc3ccccc32)O1
84	CN(c1ccccc1C(=O)Nc1cccc(Br)c1)S(=O)(=O)c1ccccc1
85	COc1ccc(OCC(=O)NC(=O)c2ccccc2OC)c([N+](=O)[O-])c1

entry no.	81	82	83	84	85
OX1R antag-1	-13.6	-4.4	-18.8	-7.1	-12.9
OX1R antag-2	1.4	7.5	28.6	23.6	20.5

86	C#CCOc1ccc(Br)cc1/C=N/O
87	COc1c(C(=O)Nc2ccc(CN3CCOCC3)cc2)cc2ccccc2c1Br
88	Cc1nc(N[C@@H](Cc2c[nH]c3ccccc23)C(=O)O)c2oc3ccccc3c2n1
89	O=[N+]([O-])c1cc(CN2CCN(c3cccc(C(F)(F)F)c3)CC2)c2cccnc2c1O
90	CS(=O)(=O)N1CCCC(C(=O)Nc2ccccc2Cl)C1 (stereo not given)

entry no.	86	87	88	89	90
OX1R antag-1	-1.6	-11.4	-15.1	8.8	-0.1
OX1R antag-2	23.5	5.9	41.8	11.9	28.6

91	COc1ccccc1/C=C1\N=C(C(C)(C)C)OC1=O
92	C=CCn1c(SCC(=O)c2ccc(Cl)cc2)nnc1-c1ccc2c(c1)OCO2
93	Cc1ccc(C(=O)NC(c2ccccc2)C(Cl)Cl)cc1 (stereo not given)
94	CCn1c(=Nc2ccc(N3CCOCC3)cc2)ccc2ccccc21
95	CC(C)c1ccc2[nH]c3nc(SCC(=O)NC4CC4)nnc3c2c1

entry no.	91	92	93	94	95
OX1R antag-1	-2.5	-4.5	-18.9	-15.5	11.5
OX1R antag-2	9.4	30.3	10.0	13.6	6.7

96	Cc1ccccc1C(=O)N1CCN(c2ccc(N3CCOCC3)nn2)CC1
97	O=C(CSC1=NCCS1)Nc1nc(-c2ccccc2)cs1
98	Cc1ccc(CSC2=Nc3ccccc3C3=NC(=O)CN23)cc1
99	CCN(CC)S(=O)(=O)c1ccc(C)c(NC(=O)CN(C)C)c1

entry no.	96	97	98	99
OX1R antag-1	-2.8	-15.2	10.9	-17.1
OX1R antag-2	20.4	17.4	11.0	11.0

# Compound activity: PubChem, The Scripps Research Institute Molecular Screening Center
